Screening data deposited in PubChem BioAssay by several laboratories.
A1 inh: caspase 3/7 activation in MEF A1-2A-BIM cells, primary screen, A1 inhibitor project, cell-based, luminescence, HTS. caspase activation, % (concentration not given with the values). Caspase-Glo 3/7 luminescence, 3 h; percent of clofoctol response, vehicle zero. 330,000 compounds, 0.066% hits. AID 2462, 2010;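 active = over half of replicate activation scores above 10%, or exactly half above 10 with the replicate mean above 10; inconclusive = replicate mean below 10 yet half the replicates above 10; inactive = over half of replicates below 10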;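 also: wells of about 30 µL received 50 nL stock; many hits fall short of the cut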
UCH37 inh: inhibitors of human UCH37 deubiquitinase, primary screen, biochemical, Ub-AMC cleavage, fluorescence | Ubiquitin carboxyl-terminal hydrolase isozyme L5 (Homo sapiens), Q9Y5K5 | 330,000 compounds, 0.33% hits | purified proteasome/UCH37 | inhibition, % (test concentration not listed);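 active = mean of two replicates above 20%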;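 also: 0% = compound-free wells with enzyme and 100% = wells lacking proteasome; stock transfer was 100 nL into about 20 µL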
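Material: human UCH37 enzyme supplied as purified proteasome complex. Measure: % inhibition of Ub-AMC cleavage fluorescence. Medium: pH 7.4 Tris-HCl (50 mM) with ovalbumin, ATP-MgCl2, DTT. Times: 30 min preincubation with enzyme, 25 min cleavage at room temperature. Detection: AMC fluorescence intensity at 355/460 nm.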
Ecoli growth: E. coli growth inhibition, primary screen, OD600; AID 1053175, 2014; OD600 absorbance (test concentration not listed); 330,000 compounds, 0.21% hits; Escherichia coli growth, 23 h; stronger effect = lower value;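 active = OD600 absorbance below the run mean of sample wells minus 3.6 SD, in any replicate, cut at about 0.56 in these data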;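 also: stock transfer was 300 nL into about 60 µL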
LANA-H2B inh: blockers of LANA interaction with H2A/H2B – biochemical, FP readout, HTS, primary screen. Protein LANA1 (Human herpesvirus 8 type P (isolate GK18)), Q9QR71. cell-free LANA-H2A/H2B peptide, fluorescence polarization. inhibition, % (test concentration not listed). 320,000 compounds, 0.6% hits. AID 2629, 2010; in the data active = inhibition mostly above about 10%, no sharp cut-off; inactive = mostly below about 6.7%;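 also: stock transfer was 7.5 nL into about 10 µL; 0% = median of vehicle wells and 100% = median of positive control wells; one replicate is shown; the record names a cut of 25% in any replicate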
Target sequence (Q9QR71 whole entry, looked up): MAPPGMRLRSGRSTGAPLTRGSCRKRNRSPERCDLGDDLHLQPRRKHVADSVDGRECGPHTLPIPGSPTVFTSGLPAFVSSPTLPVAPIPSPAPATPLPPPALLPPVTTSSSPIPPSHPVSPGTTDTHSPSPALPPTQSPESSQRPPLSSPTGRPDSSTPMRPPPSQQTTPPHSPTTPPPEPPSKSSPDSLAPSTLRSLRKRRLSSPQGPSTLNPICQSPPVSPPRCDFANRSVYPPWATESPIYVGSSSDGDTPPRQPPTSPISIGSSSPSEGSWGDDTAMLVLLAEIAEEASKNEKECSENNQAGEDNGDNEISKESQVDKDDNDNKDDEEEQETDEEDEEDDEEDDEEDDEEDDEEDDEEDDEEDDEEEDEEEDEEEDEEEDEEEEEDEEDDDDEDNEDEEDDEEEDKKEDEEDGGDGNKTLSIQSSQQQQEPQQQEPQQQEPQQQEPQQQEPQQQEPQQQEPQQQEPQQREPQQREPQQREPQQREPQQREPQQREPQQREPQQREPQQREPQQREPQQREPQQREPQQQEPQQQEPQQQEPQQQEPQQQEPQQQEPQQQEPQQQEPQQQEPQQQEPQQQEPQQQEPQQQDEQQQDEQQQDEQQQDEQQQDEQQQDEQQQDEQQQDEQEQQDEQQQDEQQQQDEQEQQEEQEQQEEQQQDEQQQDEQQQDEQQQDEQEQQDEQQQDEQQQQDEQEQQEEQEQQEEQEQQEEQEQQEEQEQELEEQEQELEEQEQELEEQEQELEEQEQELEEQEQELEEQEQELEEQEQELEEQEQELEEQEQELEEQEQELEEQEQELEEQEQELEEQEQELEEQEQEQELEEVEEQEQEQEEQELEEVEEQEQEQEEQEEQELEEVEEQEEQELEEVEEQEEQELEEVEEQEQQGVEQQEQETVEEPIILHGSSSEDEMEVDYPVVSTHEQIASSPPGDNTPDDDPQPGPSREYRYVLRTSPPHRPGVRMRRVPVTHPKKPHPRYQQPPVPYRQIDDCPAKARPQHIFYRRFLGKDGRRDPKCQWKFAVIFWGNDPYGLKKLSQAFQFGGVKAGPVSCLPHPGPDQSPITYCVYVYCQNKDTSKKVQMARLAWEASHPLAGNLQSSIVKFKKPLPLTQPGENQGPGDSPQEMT
HNF4A DNA FP: change in binding of human HNF4A to DNA, primary screen, biochemical, fluorescence polarization, FITC-DNA; Hepatocyte nuclear factor 4-alpha (Homo sapiens), P41235; 1 h; activity change, % at 10 µM; 360,000 compounds, 0.3% hits; AID 1224865, 2016; in the data active = activity change above about 30%, passing the limit was not always enough;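 also: controls were the assay level and a saturating level of protein; the project sought stronger binding though the title names inhibitors; some compounds called inactive have numbers as strong as hits; positive values seem to mean higher polarization but the record does not say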
Vif A3G: inhibitors of Vif binding to APOBEC3G peptide, primary screen, biochemical, TR-FRET, GST-Vif 1-94, biotin-A3G peptide, dose response retest (AID 1117319); Virion infectivity factor (Human immunodeficiency virus type 1 group M subtype B (isolate …; TR-FRET GST-Vif / biotin-A3G peptide binding; higher % means a stronger effect; test concentration not given here; strong numbers were not always called active; inhibition, %, or IC50 in µM where a hit was titrated; 260,000 compounds, 0.57% hits;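 active = above the screen mean plus three standard deviations and confirmed in dose response; inconclusive = results disagree or hit not tested in dose response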;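 also: Vif residues 1-94 fused to GST binding biotinylated APOBEC3G peptide 110-148; 0% = full assay without inhibitor and 100% = GST in place of GST-Vif; retest series ran down from 100 µM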
B2AR ag: beta2AR agonists driving receptor internalization, primary screen, cell-based, FAP fluorogen, flow cytometry | Beta-2 adrenergic receptor (Homo sapiens), P07550 | Am2.2-beta2AR cells; reference of the scale not given here | response, % (concentration not given with the values) | 340,000 compounds, 0.43% hits | AID 504454, 2011;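 active = response above a set limit, near 3 SD of response in nonfluorescent compounds, cut at about 42% in these data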;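 also: stock transfer was 100 nL into about 11 µL; a reference agonist was the positive control; negative values mostly stem from fluorescent compounds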
* marks the source's active call; other numbers are inactive results; ? = inconclusive; / = not tested or not shown; & = joins results of further samples.

mol,A1 inh,UCH37 inh,Ecoli growth,LANA-H2B inh,HNF4A DNA FP,Vif A3G,B2AR ag
COc1ccc(Cc2nnc(NC(=O)Nc3ccccc3F)s2)cc1OC,?,0.5,0.67,3.8,5.7,-4%,-5
CC(C)=CC(=O)N1CCCC(N2CCN(c3ccccc3C)CC2)C1 (stereo not drawn),0.9,2.1,0.68,-5.6,-0.3,/,-7
OC(COCc1cccs1)CN1CCN(c2cccc(Cl)c2)CC1 (stereo not drawn),-0.4,/,/,2.2,-0.9,-1%,-4
Nc1nnc(SCC(=O)OCc2ccccc2)s1,0.0,3.1,0.7,-3.1,6.3,12%,7
O=C(Nc1ccc2c(c1)OCO2)N1CCN(c2ccc(F)cc2)CC1,0.3,0.0,0.69,1.0,2.3,1%,15
Nc1ccc(-c2nc3ccccc3o2)cc1,-7.3,-169,0.69,-4.4,4.4,4%,-51
C#CCn1c(O)c(N=NC(=O)C(O)c2ccccc2)c2ccccc21 (stereo not drawn),0.2,7.1,0.67,3.6,1.1,-4%,2
COc1ccccc1NC(=O)COC(=O)c1c(C)nn(-c2ccccc2)c1C,-13,2.2,0.68,-0.7,7.0,/,9
CCC1Oc2ccccc2N(CC(=O)NCCCN2CCCC2)C1=O (stereo not drawn),-0.1,4.8,0.65,5.0,5.2,-2%,-5
Nc1ccc(C(=O)N/N=C\C=C\c2cccc([N+](=O)[O-])c2)cc1,0.4,/,/,-5.7,-0.4,/,-2
CC(C)C[C@H]1CN=C(Nc2ccccc2)N1CC1CCC1,0.1,4.3,/,2.6,0.9,/,2
COc1ccc(S(=O)(=O)N2CCN(C(=O)NC3CCCCC3)CC2)cc1,1.1,-0.9,0.67,-5.9,-0.3,19%,-1
CC(=O)NC1=NN(C(C)=O)C2(S1)C(=O)N(CC(C)C)c1ccc(C)cc12 (stereo not drawn),-0.5,2.0,0.61,-3.3,1.2,-2%,1
COc1ccc(C(C(=O)NCC2CCCO2)N(C(=O)Cn2nnc3ccccc32)c2ccc(NC(C)=O)cc2)cc1 (stereo not drawn),-0.1,0.6,0.7,-0.7,3.4,/,2
COc1ccc(CNC2=CC(=O)CC(C)(C)C2)cc1,-0.6,1.0,0.7,0.3,-2.6,8%,0
Cc1cc(C(=O)CSc2ncn[nH]2)c(C)n1-c1cccc(S(=O)(=O)N2CCOCC2)c1,0.0,2.0,0.67,2.2,1.1,-7%,-5
O=C(Nc1ncc(Cl)cn1)c1cccs1,-4.1,6.3,0.76,2.5,-0.3,-4%,1
O=C(O)c1ccccc1C(=O)NNC(=O)C(c1ccccc1)c1ccccc1,-0.3,5.1,0.7,0.4,3.9,-10%,8
CCOc1ccc(NC(=S)Nc2ccc(Br)cc2Cl)cc1,1.3,2.3,0.66,-7.9,-0.4,1%,4
COc1ccccc1-n1c(C)cc(/C=C2\C(=N)N3N=C(CC(=O)N4CCOCC4)SC3=NC2=O)c1C,-0.5,4.9,0.7,6.3,3.6,/,-6
CC(=O)c1cccc(NC(=O)c2cc(=O)[nH]c3ccc(S(=O)(=O)N4CCOCC4)cc23)c1,0.6,-2.0,0.66,1.1,0.5,4%,-7
Cc1sc2nc(CSc3n[nH]c(N)n3)[nH]c(=O)c2c1C,0.3,1.6,0.71,5.5,5.6,3%,-10
C#CCOCCOCCOCCNc1nc(N2CCN(C(=O)CCCCCCCCCCNC(=O)[C@H]([C@@H](C)CC)n3cc(CCCCCN)nn3)CC2)nc(N2CCN(C(=O)CCCCCCCCCCNC(=O)[C@H]([C@@H](C)CC)n3cc(CCCCN=C(N)N)nn3)CC2)n1,0.7,9.4,/,-9.9,153,/,-507
Cn1cc(Cl)c(/C=C(\C#N)S(=O)(=O)c2ccccc2)n1,0.7,5.3,0.66,-8.8,0.4,-9%,-10
O=C(Nc1ccc(-c2nc3ccccc3s2)cc1)c1cc(-n2cnnc2)ccc1Cl,0.4,-17,0.74,13,1.5,7%,9
CCOC(=O)c1ccccc1NC1CC(=O)N(c2ccccc2C)C1=O (stereo not drawn),-0.7,-284,0.74,1.8,-1.8,29%,16
CCN(Cc1ccccc1)C(=O)c1ccc(CS(=O)c2ccccc2C)o1 (stereo not drawn),-0.4,3.8,0.69,3.7,0.8,2%,-11
COc1cc(C#N)ccc1OCC(=O)NCCC1=CCCCC1,0.0,-2.1,0.69,-8.3,1.8,4%,-10
NNc1nc(N)c2c(n1)-c1ccccc1CC21CCCC1,0.1,-3.6,0.69,0.8,2.5,-4%,-2
O=C(NCCO)c1cc2c(s1)CCC2,0.0,1.8,0.67,-5.3,0.2,-4%,-7

Full records from above. Order of values: A1 inh | UCH37 inh | Ecoli growth | LANA-H2B inh | HNF4A DNA FP | Vif A3G | B2AR ag
CCN(Cc1ccccc1)C(=O)c1ccc(CS(=O)c2ccccc2C)o1 (stereo not drawn) is entered as -0.4 | 3.8 | 0.69 | 3.7 | 0.8 | 2% | -11
O=C(NCCO)c1cc2c(s1)CCC2 is entered as 0.0 | 1.8 | 0.67 | -5.3 | 0.2 | -4% | -7

Back to the main list, starting 2 compounds before the break.
mol,A1 inh,UCH37 inh,Ecoli growth,LANA-H2B inh,HNF4A DNA FP,Vif A3G,B2AR ag
NNc1nc(N)c2c(n1)-c1ccccc1CC21CCCC1,0.1,-3.6,0.69,0.8,2.5,-4%,-2
O=C(NCCO)c1cc2c(s1)CCC2,0.0,1.8,0.67,-5.3,0.2,-4%,-7
Cc1cccc(-c2nsc(SCC(=O)NCc3ccco3)n2)c1,-1.2,1.0,0.67,-3.4,1.9,-4%,-3
O=C(NCc1cccc(Cl)c1)C1CCN(c2nnc(N3CCCC3=O)s2)CC1,-0.7,-0.5,0.75,5.9,1.7,/,-17
COC(=O)c1ccccc1CC1Cc2cc3c(cc2C1=O)CCC3 (stereo not drawn),/,/,/,/,1.8,0%,-1
CC1CCCCN1CCCNC(=O)Cn1c(=O)c2cccn2c2ccccc21 (stereo not drawn),-1.9,3.3,0.67,3.4,-4.0,/,-8
CC(C)CNC(=O)CN(C1CCCCC1)S(C)(=O)=O,-0.5,4.1,0.69,-1.9,2.0,0%,4
Cc1ccc(C)c(OCc2nc3ccccc3[nH]2)c1,0.0,0.2,0.62,8.1,1.9,-5%,0
Cc1ccc(NC2c3ncccc3C(=O)N2c2ccccc2C)cc1C (stereo not drawn),-0.2,2.1,0.65,7.4,6.3,-1%,-1
COc1cc(NC(=O)COc2ccc(-n3cnnn3)cc2)c(OC)cc1Cl,0.1,1.6,0.67,-3.4,-9.0,4%,10
COc1cc(C(=O)NCCc2ccc(F)cc2)c([N+](=O)[O-])cc1OC,-0.6,4.0,0.71,-1.9,-1.8,-4%,-1
Cc1ccc(C2/C(=C(/O)c3cnn(-c4ccccc4)c3C)C(=O)C(=O)N2CCN2CCOCC2)o1 (stereo not drawn),1.3,7.7,0.76,-1.9,3.3,14%&-6%,2
Cc1cccc(C(=O)Nc2ccccc2C(=O)OCC(=O)Nc2ccc(C#N)cc2)c1,-4.3,-3.2,0.66,-8.3,-1.1,-9%,-1
CCc1nnc(NC(=O)CSc2nc3c([nH]c4ccccc43)c(=O)n2CCOC)s1,-0.1,0.8,0.76,-2.3,1.3,-1%,-4
COc1ccc(CNC(=O)CSc2nnc(Cn3nnc4ccccc43)n2C)cc1,0.8,5.2,0.66,0.7,-2.4,15%,-9
C[N+](C)(C)CCCN(Cc1ccc2c(c1)OCO2)C(=O)NC1CCCCC1,-0.1,4.1,0.62,-2.8,-2.0,-9%,-2
CCOc1ccc2[nH]c(C)c(CN(C)C)c(=O)c2c1,1.1,-42,0.69,0.6,-3.7,0%,-1
C=CCSC1=C(C#N)C(c2ccccc2OCC)C(C#N)C(=O)N1 (stereo not drawn),0.7,3.9,0.73,-4.9,6.1,20%,0
Cc1ccc(NC(=O)C(=O)NCc2ccc(/C=C(/C#N)C(=O)NCc3cccnc3)o2)cc1,0.8,7.2,0.74,9.0,3.0,8%,4
CCOc1ccc(NC(=O)CN(C)C(=O)c2cccc(S(=O)(=O)N3CCCC3)c2)cc1OCC,/,1.3,0.67,/,1.3,2%,-2
COc1cccc(C(=O)N/N=C(\C)CC(=O)Nc2ccc(N(C)C)cc2)c1,-0.2,/,/,4.5,4.6,/,-9
Nc1ccc(CCc2ccc(N)cc2)cc1,0.2,3.0,0.62,-2.2,-0.1,/,7
O=C(CCS(=O)(=O)c1ccccc1)Nc1ccccc1N1CCOCC1,0.0,-3.2,0.69,0.3,-1.6,-2%,2
O=C(CSc1ncn[nH]1)N1N=C2/C(=C\c3ccco3)CCCC2C1c1ccco1 (stereo not drawn),/,1.0,0.63,/,4.5,-4%,5
O=C(N/N=C1/CCCc2ccccc21)C(c1ccccc1)c1ccccc1,1.0,/,/,-2.2,3.1,20%,3
Cc1cc(C)c2c(N)c(C(=O)Nc3ncc(C)s3)sc2n1,-8.4,-219,0.63,0.7,0.5,-2%,10
CCCn1c(N)c(C(=O)CN(C)CC(=O)Nc2c(Cl)cccc2Cl)c(=O)[nH]c1=O,-0.2,3.4,0.66,-0.1,-2.6,-2%,4
N#CC(c1ccc(Cl)nn1)c1ccc(Cl)cc1Cl (stereo not drawn),0.4,4.0,0.76,-1.3,-0.7,1%,-1
O=[N+]([O-])c1ccc2[nH]c3nc4ccccc4nc3c2c1,-0.5,/,/,-5.3,0.7,/,-6
CCC(C)c1ccc2oc(-c3ccc(NC(=O)Cn4cnc5c(=O)n(C)c(=O)n(C)c54)cc3)nc2c1 (stereo not drawn),-0.8,-25,0.68,1.1,3.0,18%,0
CC(C)C1N(C(=O)CN2CCCC2)CCN1S(=O)(=O)c1ccccc1 (stereo not drawn),-0.2,3.4,0.7,9.7,0.3,30%,1
O=c1cc(O)c(-c2ccc(Cl)c(Cl)c2)c(Cl)[nH]1,0.7,3.4,0.72,-3.6,3.6,5%,4
CCCSc1nnc(Nc2ccccc2C)s1,-4.4,0.6,0.72,2.4,-1.3,19%,15
COCCNC(=O)c1c(CS(=O)(=O)c2ccccc2)noc1C(=O)NCc1ccccc1,0.1,3.1,0.69,-1.9,-1.1,/,3
C/C(=N/NC(=O)CN(c1ccccc1)S(=O)(=O)c1ccccc1)c1ccccc1O,0.6,/,/,1.2,1.2,3%,6
COc1cccc(N=CC=C2OC(C)(C)C(C)(C)O2)c1,-0.5,-5.8,/,-6.3,-3.9,9%,0
COC(=O)Nc1nnc(CCc2ccccc2)s1,-0.2,5.8,0.78,-1.7,4.2,-1%,4
O=C(Cn1cnc2c(NCc3ccccc3)ncnc21)NCc1ccc2[nH]ccc2c1,/,1.1,0.7,/,-0.7,/,1
